Bfl-1 A1 inh = inhibitors of the anti-apoptotic protein A1, read as caspase activation; MEF A1-2A-BIM cells, Caspase-Glo 3/7 luminescence, 3 h; percent of clofoctol response, vehicle zero; caspase activation, % (concentration not given with the values); hit rate 0.066% among 330,000; AID 2462;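 active means over half of replicate activation scores above 10%, or exactly half above 10 with the replicate mean above 10; inconclusive means replicate mean below 10 yet half the replicates above 10; inactive means over half of replicates below 10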;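 further: wells of about 30 µL received 50 nL stock; many hits fall short of the cut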
RanGTP-Impb inh = inhibitors of RanGTP-importin-beta interaction, primary screen, biochemical, FRET, CFP-Ran, YFP-importin-beta, homogeneous; cell-free CFP-Ran/YFP-importin-beta FRET ratio; inhibition, % (no concentration beside the values); AID 2216; hit rate 1.1% among 300,000;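 active means most replicates above 15%; inconclusive means exactly half above 15%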;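 further: 0% = DMSO wells and 100% = Ran loaded with GDP instead of GTP; wells of about 40 µL received 100 nL stock; the first replicate is given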
AF4-AF9 inh = inhibitors of human MLL-AF4/AF9 interaction | AlphaScreen, biotin-AF4 peptide binding to FLAG-AF9 | inhibition, % at 10 µM | hit rate 0.47% among 350,000;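 active means every replicate reaching a set inhibition limit, whatever the replicate mean, cut at about 25% in these data; inconclusive means mean inhibition reaches that limit but some replicates miss it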;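 further: 0% = plate neutral control median and 100% = total signal loss; the record names both 10 and 1 µM as test concentration; the first replicate is given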
Beta apoptosis = beta cell apoptosis inhibition | hit rate 0.8% among 300,000 | protection from apoptosis, % (concentration not given with the values) | INS-1E cytokine-induced death, ATP luminescence, 48 h; percent of positive-control rescue, neutral wells zero | AID 435005;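 active means all replicates at 75% or more, or half of them and the mean; inconclusive means half reach 75% but not the mean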;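 further: 0% = cytokine-treated negative control wells and 100% = positive control rescue; higher means more ATP so stronger rescue from cytokine killing; wells of about 40 µL received 100 nL stock; the first replicate is given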
Vif A3G = HIV-1 Vif–A3G interaction blockers – biochemical, TR-FRET, GST-Vif 1-94, biotin-A3G peptide, dose response retest, primary screen (AID 1117319). TR-FRET GST-Vif / biotin-A3G peptide binding; higher % means a stronger effect; test concentration not given here; strong numbers were not always called active. one-dose inhibition, %; IC50 in µM for titrated hits. hit rate 0.57% among 260,000;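 active means above the screen mean plus three standard deviations and confirmed in dose response; inconclusive means results disagree or hit not tested in dose response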;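 further: Vif residues 1-94 fused to GST binding biotinylated APOBEC3G peptide 110-148; 0% = full assay without inhibitor and 100% = GST in place of GST-Vif; retest series ran down from 100 µM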
Calb FLC = affects C. albicans growth with fluconazole. C. albicans CaCi-2 (fluconazole-resistant clinical isolate) + fluconazole, Alamar Blue growth, 48 h. hit rate 0.57% among 300,000. growth inhibition, % (test concentration not listed);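 active means most replicates above 75%; inconclusive means exactly half above 75%; inactive means most below 75%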;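 further: all wells also contain fluconazole at 8 µg/ml as a sub-toxic cotreatment; 0% = median of DMSO wells and 100% = median of geldanamycin control wells; wells of about 8 µL received 7.5 nL stock; the first replicate is given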
LANA-H2B inh = blocks KSHV LANA binding to histone H2A/H2B. Q9QR71. cell-free LANA-H2A/H2B peptide, fluorescence polarization. inhibition, % (test concentration not listed). hit rate 0.6% among 320,000. AID 2629; in the data active means inhibition mostly above about 10%, no sharp cut-off; inactive means mostly below about 6.7%;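 further: stock transfer was 7.5 nL into about 10 µL; 0% = median of vehicle wells and 100% = median of positive control wells; one replicate is shown; the record names a cut of 25% in any replicate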
Target sequence (Q9QR71 whole entry, looked up): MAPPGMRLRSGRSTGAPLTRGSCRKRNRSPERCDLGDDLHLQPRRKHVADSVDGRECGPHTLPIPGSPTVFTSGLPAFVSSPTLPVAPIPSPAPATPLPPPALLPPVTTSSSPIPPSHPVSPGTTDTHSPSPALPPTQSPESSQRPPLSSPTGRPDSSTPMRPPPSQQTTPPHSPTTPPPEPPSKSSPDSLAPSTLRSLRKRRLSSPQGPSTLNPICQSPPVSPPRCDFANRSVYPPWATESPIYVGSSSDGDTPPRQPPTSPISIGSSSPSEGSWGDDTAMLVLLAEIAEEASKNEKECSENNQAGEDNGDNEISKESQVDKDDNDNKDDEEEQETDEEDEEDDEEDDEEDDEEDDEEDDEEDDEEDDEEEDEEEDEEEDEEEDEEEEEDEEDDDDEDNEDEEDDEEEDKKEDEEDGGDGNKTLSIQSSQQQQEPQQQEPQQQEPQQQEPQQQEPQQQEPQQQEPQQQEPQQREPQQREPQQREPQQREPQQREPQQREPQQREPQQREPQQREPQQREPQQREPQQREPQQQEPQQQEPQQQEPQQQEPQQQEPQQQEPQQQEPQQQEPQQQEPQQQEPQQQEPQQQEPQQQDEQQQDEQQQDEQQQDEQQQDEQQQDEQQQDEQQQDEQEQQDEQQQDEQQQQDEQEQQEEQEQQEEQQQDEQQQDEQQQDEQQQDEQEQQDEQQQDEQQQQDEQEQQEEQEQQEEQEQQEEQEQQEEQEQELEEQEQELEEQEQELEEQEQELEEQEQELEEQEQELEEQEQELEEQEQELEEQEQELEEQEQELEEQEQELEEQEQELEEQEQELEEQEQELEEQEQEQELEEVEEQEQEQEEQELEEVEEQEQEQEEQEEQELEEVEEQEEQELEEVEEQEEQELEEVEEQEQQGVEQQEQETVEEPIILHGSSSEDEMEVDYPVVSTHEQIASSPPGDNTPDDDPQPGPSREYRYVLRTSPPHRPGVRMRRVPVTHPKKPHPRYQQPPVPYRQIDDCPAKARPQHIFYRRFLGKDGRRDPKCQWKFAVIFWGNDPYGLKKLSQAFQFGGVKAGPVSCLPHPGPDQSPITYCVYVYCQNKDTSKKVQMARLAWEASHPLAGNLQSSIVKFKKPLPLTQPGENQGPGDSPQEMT
T cruzi repl = T. cruzi replication inhibition. T. cruzi beta-gal in NIH3T3, luminescence, 90 h. inhibition, % (concentration not given with the values). hit rate 1.4% among 300,000. AID 1885;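 active means mean inhibition across valid replicates above about 55%, limit read from the data; inconclusive means mean below that limit but half or more replicates reach it; inactive means mean below it, under half of replicates reach it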;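 further: signal also drops with host cell toxicity which is not excluded here; 0% = plate median of DMSO wells and 100% = zero luminescence signal; higher percent means less beta-gal luminescence so fewer parasites; stock transfer was 50 nL into about 50 µL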
Numbers without * were called inactive; & = joins results of further samples.

For COc1cc(C(=O)Nc2nnc(C3CC3)s2)ccc1OCc1c(C)noc1C the results were Bfl-1 A1 inh -0.4, RanGTP-Impb inh 4.9, AF4-AF9 inh 1.6, Beta apoptosis -1, Vif A3G -25%, Calb FLC 21, LANA-H2B inh -3.3 and T cruzi repl -2.
Screening CCC1CCCCN1S(=O)(=O)c1ccc(C(=O)Nc2nnc(-c3ccccc3Cl)o2)cc1 (stereo not given) returned Bfl-1 A1 inh 0.6, RanGTP-Impb inh -2.2, Beta apoptosis 13, Vif A3G 6%, Calb FLC 11, LANA-H2B inh -2.6 and T cruzi repl -25.
O=C(O)c1ccc(COc2ccccc2/C=C2\NC(=O)N(Cc3ccc(F)cc3)C2=O)cc1 was read as Bfl-1 A1 inh -0.9, RanGTP-Impb inh -4.8, AF4-AF9 inh -1.9, Beta apoptosis 1, Vif A3G 26%, Calb FLC -3, LANA-H2B inh -0.7 and T cruzi repl -6.
Screening CC(=O)OCC(=O)[C@@]1(O)CC[C@H]2[C@@H]3CCC4=CC(=O)CC[C@]4(C)[C@H]3[C@@H](O)C[C@@]21C returned Bfl-1 A1 inh 0.5&0.7, RanGTP-Impb inh -2.2, AF4-AF9 inh -4.0&3.3, Beta apoptosis -6&-8, Vif A3G 25%, LANA-H2B inh 5.7&6.3 and T cruzi repl -5.
For CCc1ccc(S(=O)(=O)c2cn(C)c3cc(OC)c(OC)cc3c2=O)cc1 the results were Bfl-1 A1 inh 0.4, RanGTP-Impb inh 7.7, AF4-AF9 inh -0.7, Beta apoptosis 1, Vif A3G 3%, Calb FLC 5, LANA-H2B inh 5.8 and T cruzi repl -13.
Screening CC(=O)NC(CC(=O)OCC(=O)c1c(N)n(C)c(=O)n(C)c1=O)c1ccccc1 (stereo not given) returned Bfl-1 A1 inh -0.1, RanGTP-Impb inh -4.5, AF4-AF9 inh 1.1, Beta apoptosis 1, Calb FLC 21, LANA-H2B inh -3.3 and T cruzi repl 2.
Oc1ccc2ccccc2c1N=Nc1ccc(F)cc1 was read as Bfl-1 A1 inh 1.6, RanGTP-Impb inh -0.5, AF4-AF9 inh 0.7, Beta apoptosis -8, Vif A3G 5%&7%, Calb FLC 6, LANA-H2B inh 2.7 and T cruzi repl -2.
`COc1ccc(/C(N)=N/OC(=O)c2ccc(Br)o2)cc1` gave Bfl-1 A1 inh 0.0, RanGTP-Impb inh 1.5, AF4-AF9 inh 0.2, Beta apoptosis -1, Vif A3G -4%, Calb FLC -43, LANA-H2B inh 5.1 and T cruzi repl 9.
For COC(=O)c1ccc(NC(=O)C2CC(=O)OC2c2ccccc2)cc1 (stereo not given) the results were Bfl-1 A1 inh -0.3, RanGTP-Impb inh -1.2, AF4-AF9 inh -11, Beta apoptosis -2, Vif A3G -8%, Calb FLC -3, LANA-H2B inh -0.9 and T cruzi repl -26.
Screening COc1ccc(N=NC2C(=O)N(c3ccccc3)N=C2C)cc1 (stereo not given) returned Bfl-1 A1 inh -1.2, RanGTP-Impb inh 5.7, AF4-AF9 inh 6.3, Beta apoptosis -2, Calb FLC 4, LANA-H2B inh -1.5 and T cruzi repl 7.
`CCOCc1[nH]c(=S)[nH]c(=O)c1Cc1ccc(OC(C)C)cc1` gave Bfl-1 A1 inh 1.2, RanGTP-Impb inh -5.6, AF4-AF9 inh -3.8, Beta apoptosis 1, Vif A3G 0%, Calb FLC 7, LANA-H2B inh 1.6 and T cruzi repl -8.
`CCC(=O)N1N=C(c2ccc(C)o2)CC1c1ccc(OC)cc1` (stereo not given) gave Bfl-1 A1 inh -0.6, RanGTP-Impb inh -4.0, AF4-AF9 inh 0.8, Beta apoptosis 0, Vif A3G -1%, Calb FLC -5, LANA-H2B inh -0.6 and T cruzi repl -8.
`CC(C)N1CC(COc2ccccc2Cl)OC1=O` (stereo not given) gave Bfl-1 A1 inh 0.3, RanGTP-Impb inh 0.7, AF4-AF9 inh -2.1, Calb FLC -22, LANA-H2B inh -1.0 and T cruzi repl -9.
`CNCCOc1nc(N2CCOCC2)nc(C)c1[N+](=O)[O-]` gave Bfl-1 A1 inh -0.7, RanGTP-Impb inh -3.3, AF4-AF9 inh -7.7, Beta apoptosis 4, Calb FLC -17, LANA-H2B inh -2.4 and T cruzi repl -16.
For COc1ccc(C2CC(=O)Oc3cc(O)cc(O)c32)cc1 (stereo not given) the results were Bfl-1 A1 inh 0.0, RanGTP-Impb inh 0.2, AF4-AF9 inh -0.6, Calb FLC -2, LANA-H2B inh -4.3 and T cruzi repl 25.
Screening CC(C)CC(=O)NC(=S)Nc1ccc(S(=O)(=O)NC(C)(C)C)cc1 returned Bfl-1 A1 inh -0.2, RanGTP-Impb inh 3.4, AF4-AF9 inh 0.4, Beta apoptosis 0, Vif A3G 0%, Calb FLC 14, LANA-H2B inh -3.1 and T cruzi repl -2.
`CC(C)(C)c1ccc(NC(=O)c2ccc3c(c2)S(=O)(=O)c2ccccc2C3=O)cc1` gave Bfl-1 A1 inh 0.7, RanGTP-Impb inh -3.0, AF4-AF9 inh 2.2, Beta apoptosis 5, Calb FLC 1, LANA-H2B inh 1.9 and T cruzi repl -25.
`O=C1OCCC1Sc1ncnc2sc3c(c12)CCC3` (stereo not given) gave Bfl-1 A1 inh -0.3, RanGTP-Impb inh -7.5, Beta apoptosis -9, Vif A3G 22%, Calb FLC 10, LANA-H2B inh 1.0 and T cruzi repl 1.
`CSc1nc(Cc2ccccc2)cc(=O)[nH]1` gave Bfl-1 A1 inh 1.5, RanGTP-Impb inh 2.1, AF4-AF9 inh -4.4, Vif A3G 12%, Calb FLC 10, LANA-H2B inh -0.2 and T cruzi repl -5.
`CCS(=O)(=O)c1ccc(OC)c(N=Nc2ccc(O)c3ncccc23)c1` gave Bfl-1 A1 inh -0.1, RanGTP-Impb inh -1.2, AF4-AF9 inh inconclusive, Beta apoptosis 108*, Vif A3G 3%, Calb FLC -12, LANA-H2B inh -4.0 and T cruzi repl 18.
`CCn1ccc(C(=O)Nc2ccsc2C(=O)OC)n1` gave Bfl-1 A1 inh -0.2, RanGTP-Impb inh 2.9, AF4-AF9 inh -4.8, Beta apoptosis 3, Calb FLC 21, LANA-H2B inh 4.7 and T cruzi repl -1.
For COc1ccc(NC(=O)COC(=O)C2CC(=O)N(Cc3ccc(C)cc3)C2)cc1 (stereo not given) the results were Bfl-1 A1 inh 0.6, RanGTP-Impb inh -2.4, AF4-AF9 inh 3.5, Beta apoptosis -3, Calb FLC 3, LANA-H2B inh -2.1 and T cruzi repl -3.
`O=C(NC1CCCC1)C(c1ccncc1)N(C(=O)c1ccco1)c1ccccc1` (stereo not given) gave Bfl-1 A1 inh 0.4, RanGTP-Impb inh 3.8, AF4-AF9 inh -0.5, Beta apoptosis -4, Vif A3G -5%, Calb FLC -4, LANA-H2B inh 5.4 and T cruzi repl 0.
For C=CC[C@H](CC(=O)N(CCO)Cc1ccccc1)C(=O)N[C@H](COC(=O)[C@@H](CC=C)CC(=O)OC(C)(C)C)c1ccccc1 the results were Bfl-1 A1 inh -0.4, AF4-AF9 inh 1.3, Beta apoptosis 7 and LANA-H2B inh 2.3.
Screening Cc1ccc(C(=O)CSc2nccn2-c2ccccc2)cc1 returned Bfl-1 A1 inh 0.0, RanGTP-Impb inh 2.5, Beta apoptosis -2, Vif A3G 7%, Calb FLC -8, LANA-H2B inh -1.6 and T cruzi repl 3.
For O=C(N1CCOCC1)N(Cc1ccccc1)c1ccccn1 the results were Bfl-1 A1 inh 0.2, RanGTP-Impb inh 2.6, Beta apoptosis -9, Vif A3G 2%, Calb FLC 22, LANA-H2B inh -4.1 and T cruzi repl -14.
Screening CCN1CC2=C(OC(N)=C(C#N)C2c2cccs2)/C(=C\c2cccs2)C1 (stereo not given) returned Bfl-1 A1 inh -1.0, RanGTP-Impb inh 0.2, AF4-AF9 inh 9.9, Beta apoptosis 0, Vif A3G 25%, Calb FLC 1, LANA-H2B inh 0.2 and T cruzi repl 42.
For c1cncc(CNc2ccc3c(c2)OCO3)c1 the results were Bfl-1 A1 inh 0.7, RanGTP-Impb inh 6.7, Beta apoptosis 5, Vif A3G inconclusive, Calb FLC 11, LANA-H2B inh 3.8 and T cruzi repl 32.
`CC(C)n1c(O)c(N=NC(=O)Cn2ccc(C(F)(F)F)n2)c2ccccc21` gave Bfl-1 A1 inh -0.3, RanGTP-Impb inh -3.5, Beta apoptosis -2, Vif A3G 6%, Calb FLC -1, LANA-H2B inh -0.6 and T cruzi repl 9.
`COc1ccc(-c2c(-c3cc(OC)cc(OC)c3)n(C)c3ccc(-c4cccc5[nH]ccc45)cc23)cc1` gave Bfl-1 A1 inh 1.2, AF4-AF9 inh 1.9, Beta apoptosis -2 and LANA-H2B inh 0.7.
For Cc1sc2ncn(CC(=O)NCCCC(=O)N3CCN(Cc4ccc5c(c4)OCO5)CC3)c(=O)c2c1C the results were Bfl-1 A1 inh 0.3, RanGTP-Impb inh 28*, AF4-AF9 inh -3.3, Beta apoptosis 4, Vif A3G -4%, Calb FLC -18, LANA-H2B inh -1.8 and T cruzi repl 0.
For O=C(OCC1OC(n2ccc(=O)[nH]c2=O)C(Cl)C1O)c1ccccc1 (stereo not given) the results were Bfl-1 A1 inh 1.7, RanGTP-Impb inh -0.2, AF4-AF9 inh -0.4, Beta apoptosis -4, Vif A3G 5%, Calb FLC -4, LANA-H2B inh 5.1 and T cruzi repl -11.
Cc1cc(=O)oc2cc(O[C@@H]3O[C@H](CO)[C@@H](O)[C@H](O)[C@H]3O)ccc12 was read as Bfl-1 A1 inh -0.2, RanGTP-Impb inh 1.4, AF4-AF9 inh 2.1, Beta apoptosis 3, Vif A3G 1%, Calb FLC -7, LANA-H2B inh -1.9 and T cruzi repl -6.
For CCn1cc(C(=O)N2CCCC(C(=O)c3ccc4ccccc4c3)C2)cn1 (stereo not given) the results were Bfl-1 A1 inh 0.4, RanGTP-Impb inh 2.0, AF4-AF9 inh -1.9, Beta apoptosis -3, Calb FLC 2, LANA-H2B inh -2.9 and T cruzi repl 5.
For COc1ccc(C)cc1N=Nc1ccc(O)c2ncccc12 the results were RanGTP-Impb inh -0.1, AF4-AF9 inh 19, Vif A3G 2%, Calb FLC 109* and T cruzi repl inconclusive.
Screening COc1ccc(C2C(C#N)=C(N)OC3=C2C(=O)CC(C)C3)c(OC)c1OC (stereo not given) returned Bfl-1 A1 inh -0.8, RanGTP-Impb inh 2.1, Beta apoptosis -3, Vif A3G 1%, Calb FLC 4, LANA-H2B inh 3.5 and T cruzi repl 4.
CN(CC(=O)Nc1ccc(F)cc1)S(=O)(=O)c1ccc2c(c1)c(=O)n(C)c(=O)n2C was read as Bfl-1 A1 inh -0.6, RanGTP-Impb inh -0.5, AF4-AF9 inh 1.4, Beta apoptosis -2, Calb FLC -1, LANA-H2B inh 5.1 and T cruzi repl 4.

Bioassay records deposited in PubChem by several laboratories.
